ClpP mod: qHTS Assay for Activators of ClpP; Potency, µM (highest dose often 57.5 µM), without a hit: top-dose activity change, negative = active; hit rate 1.9% among 340,000; purified B. subtilis ClpP, FRET peptide cleavage, 20 min; ATP-dependent Clp protease proteolytic subunit (Bacillus subtilis (strain 168)), P80244; active = well fitted falling curve with a large enough effect; inconclusive = small, poorly fitted or top-dose-only effect; inactive = no such curve, though single readings can be large or run the other way; further: potency means the concentration at half of the fitted maximal effect; the source files actives as falling curves though it sought activators and does not explain the sign; nearly all actives have a fitted effect of over 65% in size; many hits overshoot -100%
Target sequence (P80244 whole entry, looked up): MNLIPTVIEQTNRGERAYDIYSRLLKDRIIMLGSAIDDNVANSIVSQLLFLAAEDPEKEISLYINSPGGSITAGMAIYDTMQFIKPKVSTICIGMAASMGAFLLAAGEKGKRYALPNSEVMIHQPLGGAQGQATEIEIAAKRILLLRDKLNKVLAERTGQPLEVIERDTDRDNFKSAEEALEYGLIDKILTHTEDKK
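FRET quenching reversal measured ClpP activation: 10 microg/mL B. subtilis ClpP at pH 8 with the FRET-FV decapeptide, read at 430 nm after 320 nm excitation. The 20-min minus 0-min signal was scaled between DMSO/no-enzyme wells and ADEP (5.8 microM final).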
gsp antag: qHTS for Antagonists of gsp, the Etiologic Mutation Responsible for Fibrous Dysplasia/McCune-Albright Syndrome: qHTS. AID 624288, 2012. gsp-mutant cells, cAMP HTRF, 30 min; control for the full effect not named in the record. Potency, µM (top dose mostly 76.9 µM), without a hit: top-dose activity change, negative = inhibition, most hits filed as inhibitors. hit rate 0.4% among 340,000; active = falling curve of any shape with a large fitted effect; inconclusive = falling curve, mostly with a smaller effect; inactive = flat or rising curve; cell line not stated here;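 further: intracellular cAMP measured with PDE inhibitor Ro 20-1724 present during compound exposure; potency means the concentration at half of the fitted maximal effect; on the % scale 0 is the no-effect control and ±100 the full control effect; nearly all actives have a fitted effect of over 65% in size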
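G418-selected cells were plated in DMEM/10% FBS for 16-24 h at 37C, then treated with compounds plus the PDE inhibitor […] (300 uM solution added) for 30 min at 37C. Intracellular cAMP was measured by HTRF after 30 min lysis at room temperature.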
TRPV1 potentiator: HTS Assay for Compounds that Act as Potentiators of the Vanilloid Receptor 1. potentiation, % at 8.33 µM. hit rate 0.02% among 320,000. Transient receptor potential cation channel subfamily V member 1 (Homo sapiens), Q8NER1. TRPV1-expressing cells, Fluo-8 calcium influx, capsaicin EC20 potentiation; host cell line not named in the record; control for the full effect not named in the record; active means potentiation above 80%; inconclusive means 30% to 80%; inactive means below 30%; further: 0% is about no effect
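Fluo-8 calcium influx in TRPV1-expressing cells, kinetic read (ex 480/em 520 nm). Compound added and read 3 min for agonist activity, followed by capsaicin at EC20 final and 2 min further read for enhancement.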
Menin MLL FP FL: qHTS Assay for Inhibitors Targeting the Menin-MLL Interaction in MLL Related Leukemias: Competition With Fluorescein Labeled MLL-derived Peptide; Fluorescence polarization, fluorescein-MLL peptide displacement from menin; FP activity change, % at 61.4 µM; 290,000 tested, under 10 active; inconclusive = falling polarisation curve, or a change in total fluorescence; inactive = total fluorescence flat and polarisation flat or rising; no compound was filed as active; the % refers to the polarisation; negative = inhibition;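 further: % of control where 0% means no effect; inhibitors lower the polarisation; unlabelled MLL peptide was the positive control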
Sfp PPTase inh: qHTS Assay for Inhibitors of Bacillus subtilis Sfp phosphopantetheinyl transferase (PPTase); Biochemical Sfp PPTase activity, qHTS; 4'-phosphopantetheinyl transferase ffp (Bacillus subtilis), Q9F4F7; hit rate 3.5% among 310,000; Potency, µM, for the others: max response, negative = inhibition, most hits filed as inhibitors; active means well fitted inhibition curve with a large enough effect; inconclusive means small, poorly fitted or top-dose-only effect, or another doubt; inactive means no such curve, though single readings can be large or run the other way;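 further: the enzyme is Sfp with the accession as filed and its product quenches rhodamine fluorescence; potency means the concentration at half of the fitted maximal effect; 0% = enzyme reaction without inhibitor and -100% = no enzyme wells; top concentration of the series not given in the record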
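Reaction rates are the 30-min fluorescence difference (ex 525, em 598 nm) in wells containing 15 nM Sfp, 5 uM rhodamine-CoA and 12.5 uM BHQ-2-YbbR at pH 7.6 with 10 mM MgCl2.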
gsp ag: qHTS for Agonist of gsp, the Etiologic Mutation Responsible for Fibrous Dysplasia/McCune-Albright Syndrome: qHTS | gsp mutant cells, cAMP HTRF, 30 min; control for the full effect not named in the record | Potency, µM (titrated, usually from 76.9 µM), inactives show at the top dose activation (cAMP increase), actives largely listed as activators | hit rate 0.13% among 340,000 | AID 624287, 2012; active = well fitted activation curve with a large enough effect; inconclusive = small, poorly fitted or top-dose-only effect, or another doubt; inactive = no such curve, though single readings can be large or run the other way; cell line not stated here;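 further: phosphodiesterase inhibitor Ro 20-1724 added with compounds to block cAMP breakdown; potency means the concentration at half of the fitted maximal effect; nearly all actives have a fitted effect of over 60% in size; about a fifth of the inactives were tested at one dose only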
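Cells stably selected in G418 were plated at 2000/well, grown 16-24 hr, then given compounds in DMSO with the PDE inhibitor […] (300 uM solution added) for 30 min at 37C; cAMP was read by HTRF.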
TRPML1 inh: qHTS for Inhibitors of the Human Mucolipin Transient Receptor Potential 1 (TRPML1) | Mucolipin-1 (Homo sapiens), Q9GZU1 | TRPML1-inducible cells, Ca2+ dye fluorescence, FDSS; stronger effect = lower value; inhibition of EC80 agonist-evoked calcium signal | activity change, negative = inhibition, % (concentration not given with the values) | hit rate 0.02% among 390,000 | AID 624415, 2012; in the data active means activity change below about -50%; inconclusive means about -30% to -50%; inactive means above about -30%;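 further: stimulus is agonist 54-4 at its EC80 concentration; on the % scale 0 is the no-effect control and ±100 the full control effect; compound concentration not given in the record; the text of the record puts the active cut at -80%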
Target sequence (Q9GZU1 whole entry, looked up): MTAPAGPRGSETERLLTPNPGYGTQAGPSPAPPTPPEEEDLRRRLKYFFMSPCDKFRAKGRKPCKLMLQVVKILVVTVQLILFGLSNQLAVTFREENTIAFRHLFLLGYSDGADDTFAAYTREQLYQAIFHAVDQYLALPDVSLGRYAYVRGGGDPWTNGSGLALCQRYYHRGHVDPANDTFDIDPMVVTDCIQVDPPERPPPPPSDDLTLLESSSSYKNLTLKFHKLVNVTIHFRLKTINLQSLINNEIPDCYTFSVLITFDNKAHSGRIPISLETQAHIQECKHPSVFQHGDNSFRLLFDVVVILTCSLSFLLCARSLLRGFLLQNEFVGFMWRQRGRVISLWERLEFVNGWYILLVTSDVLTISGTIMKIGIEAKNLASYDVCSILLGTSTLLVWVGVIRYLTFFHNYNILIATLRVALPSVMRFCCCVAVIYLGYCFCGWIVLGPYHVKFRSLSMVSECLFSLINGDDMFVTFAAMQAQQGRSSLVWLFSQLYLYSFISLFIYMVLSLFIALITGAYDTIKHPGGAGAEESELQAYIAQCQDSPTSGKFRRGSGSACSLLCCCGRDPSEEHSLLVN
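Calcium fluorescence in TRPML1-DL cells induced overnight with Tet: a 110 s read after compound pin addition, then a 110 s antagonist read after challenge with 54-4 at 4 uM final (EC80).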
Active calls of the source: *; ? = inconclusive; · = no result given; & = joins results of further samples; [ ] = dose if it differs, or a comment.

Below each SMILES: Sfp PPTase inh, Menin MLL FP FL, TRPV1 potentiator, gsp ag, ClpP mod, TRPML1 inh, gsp antag
1. CC(=O)C(=Cc1ccc(C(=O)O)cc1)C(C)=O
→ -2%, -1.8, 21, 2%, ·, -8, 0%
2. COc1ccc(OC)c2[nH]c(=O)c(CCNC(=O)c3ccc4c(c3)OCO4)cc12
→ 14%, 2.0, -1, 27%, ·, 33, -21%
3. CCCCCOC(=O)C1=C(C)NC(=O)NC1c1ccc(N(C)C)cc1 (stereo not given)
→ 13%, 1.0, -8, 1%, -2.0%, -12, -3%
4. Cn1c(SCc2ccc(F)cc2)nnc1-c1cccs1
→ 0%, -1.2, -6, 11%, -0.3%, 2, 1%
5. CC(C)CCn1c(-c2nonc2N)nc2ccccc21
→ ?, 5.2, -5, -22%, -8.0%, 14, 28µM*
6. Cc1cccc(NC(=O)C2CCN(S(=O)(=O)c3cccs3)CC2)n1
→ 14%, 3.2, -17, -5%, -1.3%, 2, -11%
7. COc1ccc(NC(=O)COC(=O)CNS(=O)(=O)/C=C/c2ccccc2)cc1OC
→ ·, ·, -2, -61%[inhibitor], -0.9%, 11, -19%
8. CN(CC(=O)Nc1ccc(N2CCOCC2)cc1)C(=O)c1cc(F)c(F)cc1Cl
→ ·, ·, 4, -4%[15.4 µM], ·, -11, -6%
9. COc1ccc(NS(=O)(=O)c2ccc3c(c2)N(C(C)=O)CCS3)cc1
→ 4%, ·, 3, -140%[inhibitor], -2.1%, -1, -2%
10. COC(=O)C1C(=O)OC(C)(C)C1C(C)C(=O)c1ccccc1 (stereo not given)
→ 12%, -0.2, -2, -5%, 3.1%, -2, 6%
11. COC(=O)CSc1nc2c(c(-c3ccc(C)o3)c1C#N)CCCC2
→ 50µM*, 4.0, 4, 3%, ?, 4, ?
12. O=C(CSc1ccsc1[N+](=O)[O-])NCc1ccccc1
→ 2%, 2.6, -12, -18%[15.4 µM], ·, -1, 4%
13. Cc1cccc(C(=O)NCCC(=O)Nc2nc(C)c(Cc3ccc4c(c3)OCO4)s2)c1
→ -3%, 2.7, 10, 0%[15.4 µM], ·, 6, -7%
14. CCOc1ccc(NC(=O)c2sccc2-n2cccc2)cc1
→ -2%, 0.6, 2, -97%[inhibitor], -0.4%, 1, -7%
15. COC(=O)C1=C(C)N(C(C)C)C(=O)C1(NC(C)=O)C(F)(F)F (stereo not given)
→ 3%, -0.1, 1, ?, -0.8%, 24, 12%
16. Cc1ccc(-c2csc(Nc3ccccn3)n2)cc1
→ -7%, 0.2, -1, ?, ·, -7, 9%
17. CCOc1ccccc1NS(=O)(=O)c1cc2c3c(c1)CC(=O)N3CCC2
→ 3%, -0.4, 6, 27%, -0.6%, -16, 3%
18. COc1ccc(NC(=O)N2Cc3ccccc3CC2C(=O)NC(C)(C)C)cc1 (stereo not given)
→ 9%, 0.0, -3, -7%, -0.7%, -5, 10%
19. N#Cc1c(SCC(=O)OCc2ccccc2)nsc1SCC(=O)OCc1ccccc1
→ 13%, 3.9, 7, -10%, 0.0%, 35, 5%
20. O=C1OC(c2ccccc2)(c2ccc3cc(O)ccc3c2)c2ccccc21 (stereo not given)
→ ·, ·, ·, -33%[inhibitor], ·, 10, -31%
21. COc1ccccc1NC(=O)COC(=O)C1CC1
→ 12%, -0.3, -5, ?, ·, -12, 2%
22. O=C(COc1ccc2c3c(c(=O)oc2c1)CCC3)NCC1CCC(C(=O)O)CC1 (stereo not given)
→ 28%, 1.5, 10, 14%, 4.1%, 18, 4%
23. COc1cc2c(cc1OC)C(C(=O)N1CCOCC1)C(c1cccs1)N(C)C2=O (stereo not given)
→ 10%, 0.4, -9, ?, -9.2%, -2, 0%
24. Oc1ccc(N2CCN(C(c3ccncc3)c3nnnn3C3CCCC3)CC2)cc1 (stereo not given)
→ 1%, 1.8, -10, -46%, -0.8%, 50, -12%
25. Cc1ccc(N(C(=O)Cc2cccs2)C(C(=O)NC2CCCCC2)c2ccccn2)cc1C (stereo not given)
→ 9%, 1.2, -26, 22%, 1.7%, 1, -17%
26. Cc1ccc(S(=O)(=O)N2CCN(S(=O)(=O)N3CCC(C)CC3)CC2)c(C)c1
→ 22%, -0.4, 3, -6%[15.4 µM], ·, 20, 5%
27. COc1cc(C2CC(=O)Nc3c2c(=O)nc2c(C)cccn32)cc(OC)c1OC (stereo not given)
→ 14%, 4.9, 0, ?, -11%&-24%, -15&7, 7%
28. CNc1nnc(-c2ccc(N(C)C)cc2)s1
→ -6%, -1.1, -9, 8%, 2.0%, -12, -7%
29. COc1ccc(NC(C)C(=O)Nc2cccc(S(=O)(=O)N3CCOCC3)c2)cc1OC (stereo not given)
→ ·, ·, ·, 12%, 0.2%, 15, -6%

Filtered by structure, those above with an aryl methoxy group
Below each SMILES: Sfp PPTase inh, Menin MLL FP FL, TRPV1 potentiator, gsp ag, ClpP mod, TRPML1 inh, gsp antag
2. COc1ccc(OC)c2[nH]c(=O)c(CCNC(=O)c3ccc4c(c3)OCO4)cc12
→ 14%, 2.0, -1, 27%, ·, 33, -21%
7. COc1ccc(NC(=O)COC(=O)CNS(=O)(=O)/C=C/c2ccccc2)cc1OC
→ ·, ·, -2, -61%[inhibitor], -0.9%, 11, -19%
9. COc1ccc(NS(=O)(=O)c2ccc3c(c2)N(C(C)=O)CCS3)cc1
→ 4%, ·, 3, -140%[inhibitor], -2.1%, -1, -2%
18. COc1ccc(NC(=O)N2Cc3ccccc3CC2C(=O)NC(C)(C)C)cc1 (stereo not given)
→ 9%, 0.0, -3, -7%, -0.7%, -5, 10%
21. COc1ccccc1NC(=O)COC(=O)C1CC1
→ 12%, -0.3, -5, ?, ·, -12, 2%
23. COc1cc2c(cc1OC)C(C(=O)N1CCOCC1)C(c1cccs1)N(C)C2=O (stereo not given)
→ 10%, 0.4, -9, ?, -9.2%, -2, 0%
27. COc1cc(C2CC(=O)Nc3c2c(=O)nc2c(C)cccn32)cc(OC)c1OC (stereo not given)
→ 14%, 4.9, 0, ?, -11%&-24%, -15&7, 7%
29. COc1ccc(NC(C)C(=O)Nc2cccc(S(=O)(=O)N3CCOCC3)c2)cc1OC (stereo not given)
→ ·, ·, ·, 12%, 0.2%, 15, -6%

Screens (PubChem)
